Assay outcomes from PubChem.
CHT inh = inhibits the human high affinity choline transporter | Q9GZV3 | CHT-expressing cells, membrane potential dye, choline response; stronger effect = lower value | B-score at 10 µM | 0.86% of 310,000 active | AID 488975;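 active = B-score over 3 SD under the library average, and starting fluorescence ratio not unusually high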;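 also: choline stimulus applied at its EC90 after an EC20 pre-addition; B-score computed on integrated fluorescence ratio after choline addition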
Target sequence (Q9GZV3 whole entry, looked up): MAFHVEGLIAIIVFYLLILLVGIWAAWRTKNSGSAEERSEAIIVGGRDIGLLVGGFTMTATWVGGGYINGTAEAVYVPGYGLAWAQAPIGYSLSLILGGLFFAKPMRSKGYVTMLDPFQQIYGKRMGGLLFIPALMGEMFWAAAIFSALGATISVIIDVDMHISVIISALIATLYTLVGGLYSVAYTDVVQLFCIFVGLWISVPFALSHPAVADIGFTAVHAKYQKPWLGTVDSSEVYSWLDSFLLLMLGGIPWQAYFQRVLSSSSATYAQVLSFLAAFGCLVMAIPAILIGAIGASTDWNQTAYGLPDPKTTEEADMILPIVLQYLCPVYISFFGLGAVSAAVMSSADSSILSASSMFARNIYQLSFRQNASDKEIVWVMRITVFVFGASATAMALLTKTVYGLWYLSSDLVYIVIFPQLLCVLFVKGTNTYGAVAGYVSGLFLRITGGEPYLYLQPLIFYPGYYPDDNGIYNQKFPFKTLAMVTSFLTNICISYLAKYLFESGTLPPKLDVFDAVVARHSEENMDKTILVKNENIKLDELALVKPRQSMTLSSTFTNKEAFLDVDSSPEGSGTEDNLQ
Kir21 block = inhibitors of mouse Kir2.1 inward-rectifier potassium channel; HEK293-Kir2.1, FluxOR thallium flux fluorescence; stronger effect = lower value; B-score at 10 µM; P35561; 0.85% of 310,000 active;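 active = fluorescence ratio B-score at or below minus 3 SD of library scores, with starting-brightness B-score within 2 SD, cut at about -4.2 in these data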;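 also: channel flux triggered by added potassium and thallium sulfate stimulus; B-score of peak minus minimum fluorescence over baseline after thallium stimulus; more negative B-score means stronger Kir2.1 block with less thallium influx; some compounds called inactive have numbers as strong as hits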
Target sequence (P35561 whole entry, looked up): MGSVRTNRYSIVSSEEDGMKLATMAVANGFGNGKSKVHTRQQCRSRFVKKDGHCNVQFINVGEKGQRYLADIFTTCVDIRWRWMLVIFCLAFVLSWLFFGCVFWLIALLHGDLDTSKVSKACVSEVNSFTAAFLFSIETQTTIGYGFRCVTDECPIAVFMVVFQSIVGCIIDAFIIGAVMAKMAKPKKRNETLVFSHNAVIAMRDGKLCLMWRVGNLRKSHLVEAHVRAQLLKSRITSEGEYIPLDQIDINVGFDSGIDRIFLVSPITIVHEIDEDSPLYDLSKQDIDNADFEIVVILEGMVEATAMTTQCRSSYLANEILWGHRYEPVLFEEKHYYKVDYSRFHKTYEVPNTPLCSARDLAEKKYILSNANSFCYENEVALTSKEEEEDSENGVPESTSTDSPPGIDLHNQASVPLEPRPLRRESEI
An asterisk follows results filed as active; i = inactive; nt = no result given. Only part of the results is shown; most or all hits stand in other tables.

Compound,Kir21 block,CHT inh
COc1ccccc1NC(=O)CN1C(=O)C(C)Oc2ccccc21 (centres undefined),0.67,i
Cc1cccn2c(=O)c(C(=O)NC3CC(C)CC(C)(C)C3)c(O)nc12 (centres undefined),1.8,i
CCC12CC3CC(C1)CC(C(=O)O)(C3)C2,-0.11,i
COC(=O)c1sc2cc(C(F)(F)F)cnc2c1-c1ccccc1,2.2,i
Cc1ccc(-n2c(SCC(=O)Nc3ccc4c(c3)OCO4)nnc2-c2ccoc2C)cc1,-2.7,i
CCCCCC(=O)NNC(=S)NC(=O)c1ccccc1[N+](=O)[O-],-0.49,i
COc1ccc(N(Cc2cc3ccccc3[nH]c2=O)C(=O)C2CCCO2)cc1 (centres undefined),-1.3,i
CC1Cc2ccccc2N1C1=NS(=O)(=O)c2ccccc21 (centres undefined),-0.52,i
CCOC(=O)c1c(NC(=O)COC(=O)CCCOc2ccc(OC)cc2)sc(C(=O)NC)c1C,1.9,i
Cc1csc2ncc(C(=O)NCc3ccc4c(c3)OCO4)c(=O)n12,-0.33,i
Cc1ccc2sc(NNC(=O)C3=COCCO3)nc2c1C,-0.1,i
C=CCOc1c(Br)cc(CNCCCN2CCOCC2)cc1OC,-0.77,i
Cc1ccc(Cl)cc1NC(=O)C1CCN(S(C)(=O)=O)CC1,-0.56,i
O=[N+]([O-])c1ccccc1NCCNS(=O)(=O)c1ccc(Cl)cc1,-3,i
CN(C)C(=O)C1Cc2ccccc2CN1S(=O)(=O)c1ccc(F)cc1 (centres undefined),-0.31,i
COc1cc2c(cc1OC)/C(=C/C(=O)c1cccc([N+](=O)[O-])c1)NCC2,0.66,i
Cc1ccc(NC(=O)CCN2CCC(Cc3ccccc3)CC2)cc1,-2.1,i
CC1=C(C(=O)N2CCOCC2)C(c2ccccc2F)NC(=O)N1 (centres undefined),-0.35,i
O=c1[nH]c2ccc(NS(=O)(=O)c3ccc(F)c(Cl)c3)cc2[nH]1,0.49,i
CCC(=O)NNc1ncnc2c1cnn2-c1ccccc1,-0.45,i
CCN(CC)S(=O)(=O)c1ccc2c(c1)c(=O)c(C(=O)NCc1ccco1)cn2C,-0.66,i
O=C(NCc1cccnc1)Nc1ccc(Cl)c(Cl)c1,2,i
COc1ccc(NC(=S)N(Cc2cccnc2)Cc2cc3cc(OC)c(OC)cc3[nH]c2=O)cc1,0.98,i
CC(C)COC(=O)Cn1cnc2ccc(Br)cc2c1=O,2.5,i
CSc1ccccc1OCc1cc(C(=O)NCCn2ccnc2C)no1,0.16,i
CN(C)c1nc(N)nc(/C(C#N)=C/C2CC3C=CC2C3)n1 (centres undefined),-1.3,i
O=C(COc1ccc(Br)cc1Cl)NC(=S)Nc1ccccn1,0.53,i
O=C(Oc1ccc(/C=N/O)cc1)c1ccccc1Cl,-1.7,i
NCCCCCC(=O)N/N=C/c1coc2ccccc2c1=O,2.4,i
O=C(Cn1nc(C(=O)O)c2ccccc2c1=O)Nc1ccc(F)cc1F,0.35,i
COC(=O)c1c(/N=C/N(C)C)sc2c1CCN(c1ncc(C(F)(F)F)cc1Cl)C2,-1.4,i
CN(Cc1ccccc1)C1CC(=O)N(c2ccc(C(=O)O)cc2)C1=O (centres undefined),-1.7,i
O=C(NC1CC2CCC1C2)C1CCN(S(=O)(=O)c2ccc(-c3nn[nH]n3)cc2)CC1 (centres undefined),-1.9,i
COc1ccc(Cl)cc1C(=O)Nc1ccc(S(N)(=O)=O)cc1,-1.9,i
O=C(CCN=C1NS(=O)(=O)c2ccccc21)OCC(=O)c1ccccc1Cl,-0.87,i
COc1ccc(N(Cc2cc3ccc(C)cc3[nH]c2=O)C(C)=O)cc1,-0.85,i
Cc1c(OCC(=O)N2CCC(C(=O)NCCCC(=O)O)CC2)ccc2c1oc(=O)c1ccccc12,-0.01,i
O=C(COc1ccc(N2CC(C(=O)O)CC2=O)cc1)Nc1cccc(C(F)(F)F)c1 (centres undefined),1.3,i
Cc1ccc(CS(=O)(=O)Cc2ccc(C(=O)NCCCN3CCOCC3)o2)cc1,2.4,i
CC(C)(C)NC(=O)C(c1c[nH]c2ccccc12)N(C(=O)Cn1nnc(-c2ccc(F)cc2)n1)c1cccc(O)c1 (centres undefined),-0.35,i
COc1ccc(-c2nc(CS(=O)(=O)CC(=O)NCCc3ccccc3)c(C)o2)cc1,-1.2,i
O=S(=O)(/N=C(/Sc1ccccc1)c1ccccc1)c1ccccc1,1.5,i
Cc1cccc(C(C)Nc2ccc([N+](=O)[O-])cn2)c1 (centres undefined),-0.2,i
NS(=O)(=O)c1ccc(NC(=O)COC(=O)C2(c3ccc(F)cc3)CCCC2)cc1,0.69,i
Cc1ccc(-n2nnnc2SCC#N)cc1,1,i
Cc1c(CCO)c(=O)[nH]n1C(=O)c1ccc(F)cc1,-2.5,i
Cc1nc2c(=O)n(-c3ccc(F)cc3F)nc(C)c2s1,4.3,i
CCn1c2ccccc2c2cc(NC(=O)COC(=O)c3ccc(O)cc3)ccc21,0.05,i

Retrieved by compound from above (5):
Compound,Kir21 block,CHT inh
Cc1cccc(C(C)Nc2ccc([N+](=O)[O-])cn2)c1 (centres undefined),-0.2,i
Cc1c(CCO)c(=O)[nH]n1C(=O)c1ccc(F)cc1,-2.5,i
O=S(=O)(/N=C(/Sc1ccccc1)c1ccccc1)c1ccccc1,1.5,i
CCn1c2ccccc2c2cc(NC(=O)COC(=O)c3ccc(O)cc3)ccc21,0.05,i
COc1ccc(-c2nc(CS(=O)(=O)CC(=O)NCCc3ccccc3)c(C)o2)cc1,-1.2,i

(list continues)
Compound,Kir21 block,CHT inh
CCOCCCNC(=O)c1cc(-c2ccc(Br)s2)nc2ccccc12,0.15,i
O=C(NCCc1cccs1)C1CC(c2ccccc2F)=NO1 (centres undefined),1.1,i
Cc1cc(N)c2cc(NC(=O)/C=C/c3ccccc3Cl)ccc2n1,1.3,i
Cc1ccc(CNC(=O)C2c3ccccc3C(=O)N3CCc4ccccc4C23)o1 (centres undefined),-0.08,i
COc1ccc(CNC(=O)CSc2nccn(-c3ccc(F)c(F)c3)c2=O)cc1,-1.8,i
CCCc1nn(C)c2c1C(c1cccnc1)C(C#N)=C(N)O2 (centres undefined),-0.12,i
COc1cc2c(cc1NC(=O)c1cc(-c3cccnc3)nc3ccc(C)cc13)oc1ccccc12,1.2,i
N#Cc1ccc(-n2nccc2-c2cnc3n(c2=O)CCS3)cc1,-1.5,i

One compound at a time, as listed above:
Shown for CCOCCCNC(=O)c1cc(-c2ccc(Br)s2)nc2ccccc12 : Kir21 block: 0.15; CHT inh: i
Shown for O=C(NCCc1cccs1)C1CC(c2ccccc2F)=NO1 (centres undefined) : Kir21 block: 1.1; CHT inh: i

(continued)
Compound,Kir21 block,CHT inh
Cc1ccc(C)c(N/N=C2\CCCNC2=O)c1,-0.72,i
Cc1ccc(NC(=O)NCc2ccc3[nH]c(C)cc3c2)cc1,-2.3,i
Cc1cc(C)cc(NC(=O)N2CCNC(=O)C2CC(=O)Nc2cc(Cl)ccc2Cl)c1 (centres undefined),0.71,i
O=C(NCC(=O)N1CCN(S(=O)(=O)c2ccccc2)CC1)c1ccc(Br)o1,0.53,i
Cc1cccc(C(=O)c2ccccc2C(=O)O)c1O,-0.09,i
COc1ccc(CNC(N)=O)cc1OC,0,i
Cc1ccccc1Cn1cc(NC(=O)CSc2nc3c(c(C(F)(F)F)n2)CCc2ccccc2-3)cn1,-0.02,i
N#Cc1nc(-c2ccc(OCc3ccc(Cl)cc3)cc2)oc1NCc1cccnc1,-0.71,i
O=C(Nc1cccc(Cl)c1N1CCCC1)c1cccc(-c2cc3ccccc3oc2=O)c1,-1.8,i
O=C(NN1CCCCC1)c1ccc(COc2ccc(Cl)cc2)cc1,-1,i
CCOC(=O)C1CCN(C(=O)Cn2cc(C(=O)C3CC3)c3ccccc32)CC1,0.03,i
COc1cc(NC(=O)CC(C)C)ccc1NC(=O)c1ccco1,0.73,i
N/C(=N\OC(=O)c1ccccc1F)c1cccc([N+](=O)[O-])c1,0.81,i
N#Cc1c2c(c(-n3cnc4ccccc43)n3c1nc1ccccc13)CCC2,1.2,i
CC(C)(C)OC(=O)N1CCC(c2c(C(=O)NCC3CCN(C4CCCC4)C3)cnn2-c2ccc(F)cc2)CC1 (centres undefined),-0.93,i
O=C(Nc1ccccc1-c1nc2ccccc2s1)C1=COCCO1,-3.3,i
COc1ccc(C(=O)NNC(=O)c2ccc(S(=O)(=O)N3CCOCC3)cc2)cc1,-0.05,i
C=CCn1c(SCc2csc(C)n2)nc2sc3c(c2c1=O)CCCC3,0.02,i
CC(C)(Cc1nc2ccccc2[nH]1)C(=O)O,0.67,i
Cc1ccc2nc(N(CCN(C)C)C(=O)C3=COCCO3)sc2c1,-0.38,i
Cn1cnc(NCc2ccccc2)c1[N+](=O)[O-],1.1,i
Cc1cccc(C(=O)NC(=S)NCc2cccnc2)c1,0.09,i
OC(COCc1ccc2c(c1)OCO2)CN1CCCCC1 (centres undefined),1.1,i
CN(C)c1cccc(C(=O)Nc2ccc(N3CCOCC3)cc2)c1,0.73,i
Cc1ccc(C(=O)NC(C)c2ccccc2)cc1Br (centres undefined),0.34,i
O=C(NCCCN1CCOCC1)c1cc(-c2ccccc2)on1,0.05,i
CCOC(=O)CSc1snnc1C,-2,i
CNc1ccccc1C(C)(C)c1cc(-c2cc(C)cc(C)c2)no1,-2.7,i
CCCC(=O)NNC(=O)CCC(=O)NCc1ccccc1,0.01,i
Cc1noc(C)c1C(=O)N1CCCC1,0.67,i
COc1ccc(/C=N/NC(=O)c2ccc(COc3ccccc3Cl)o2)cc1,1.2,i
CNC(C)C#Cc1ccc2oc3cc(C)c(C)cc3c(=O)c2c1 (centres undefined),0.58,i
CC1CCN(C(=O)CSc2nc(=O)n3cc(Cl)ccc3n2)CC1,-1.4,i
O=C(NCc1ccc2c(c1)OCO2)C1CC(=O)N(c2ccc(O)cc2)C1 (centres undefined),2,i
O=C(O)c1cc(S(=O)(=O)NC23CC4CC(CC(C4)C2)C3)ccc1Cl,-0.35,i
c1ccc(-c2nnc(-c3ccccc3)c(-c3c[nH]c4ccccc34)n2)cc1,-0.02,i
Cc1ccccc1/C=C\c1nc2ccccc2c(=O)[nH]1,0.57,i
CC1(C)Cc2c(sc3c2C(=O)N(c2ccccc2)C2=NCCCN23)CO1,-0.1,i
CC1(C)CC(=O)C2=C(C1)NC1=C(C(=O)c3ccccc31)C2c1ccc(Cl)cc1 (centres undefined),-0.65,i
Cn1c(=O)c2c(nc(CN3CCOCC3)n2CCCO)n(C)c1=O,-0.82,i
CC(C)c1ccc(C(=O)NCc2ccc(Cl)cc2)cc1,-0.6,i
O=C(O)C(Cc1ccccc1)NS(=O)(=O)c1ccc(Cl)cc1 (centres undefined),0.81,i
O=C(O)c1ccc(NC(=O)c2cccc(S(=O)(=O)Nc3ccc(C(=O)O)cc3)c2)cc1,0,i
CCN(C(=O)CSc1nc2nc(C)cc(C)n2n1)c1ccccc1,1.8,i
Cc1csc(SCCn2c(N3CCOCC3)nc3c2c(=O)[nH]c(=O)n3C)n1,-0.17,i
CC(=O)Nc1ccnn1C1CCN(C(=O)c2cccc(C)c2C)CC1,-1.6,i
CCOC(=O)c1c(C)[nH]c(C(=O)COC(=O)c2oc3ccc(OC)cc3c2C)c1C,0.05,i
COc1cccc(NC(=O)Cn2cnc3sc(C)c(S(=O)(=O)N4CCCCC4)c3c2=O)c1,0.74,i
CSc1cccc(CN(C)C(=O)C2CCC(=O)N(CCCN3CCCC3=O)C2)c1 (centres undefined),-0.01,i
Cc1ccc(C(=O)CNc2ccc(C)c(Cl)c2)cc1,0.73,i
O=C(NCc1ccccn1)c1nn(-c2ccccc2)c(=O)c2ccccc12,0.01,i
Cn1c(C(=O)NCC2CCCO2)cc2c(=O)[nH]c3ccccc3c21 (centres undefined),0.47,i
O=C(O)Cc1sc(-c2ccccc2)nc1-c1cccs1,1.5,i
Cc1noc(C)c1C(=O)OCC(=O)N1CCN(S(=O)(=O)c2ccc3ccccc3c2)CC1,0.74,i
CCOc1ccccc1N1CC(C(=O)NNC(=O)c2ccc(F)cc2)CC1=O (centres undefined),0.92,i
C=C1CN(Cc2ccccc2)S(=O)(=O)c2ccccc21,-2.1,i

Further results follow:
Compound,Kir21 block,CHT inh
CCN(CC)CCN(Cc1cc2cc3c(cc2[nH]c1=O)OCO3)C(=S)NCCOC,1.9,i
COc1ccc([C@@H]2CC(=O)c3c(O)cc(O)cc3O2)cc1O,nt,i
O=C(C1=C(O)C(=O)N(Cc2cccnc2)C1c1ccccn1)c1cccs1 (centres undefined),0.81,i
C=CCNC(=O)C12CCC(C)(C(=O)C1Br)C2(C)C (centres undefined),-1.2,i
CCN(CC(=O)Nc1ccccc1OC)C(=O)C1CC2C=CC1C2 (centres undefined),1.4,i
CC1CN(C(=O)COC(=O)c2ccc(S(=O)(=O)N(C)C)cc2)CC(C)O1 (centres undefined),-0.87,i
CC(=C/c1ccc(C(C)C)cc1)/C=N/NC(=O)CSc1ccccn1,2.1,i
O=c1cc(CN2CCN(c3ccccc3F)CC2)c2cc3c(cc2o1)CCCC3,2.5,i
